Vaccinia inh = blocks a specific stage of Vaccinia orthopoxvirus infection | activity change (mCherry), % (concentration not given with the values) | Vaccinia-infected cells, mCherry/Venus stage reporter fluorescence; stronger effect = lower value; some inactives read as strong as hits | hit rate 0.01% among 89,000;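 active = mCherry past -33% and 40 or more points under the early reporter, replicates agreeing; inconclusive = past -33% without that gap or agreement; tested in A549 cells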;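 also: scaled between vehicle wells and reference inhibitor wells; 23 nL library stock went into each well; one replicate is shown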
Vaccinia inh Venus = further read-out of Vaccinia inh, marked with its call; activity change (Venus), %; measured here: Venus reporter, other viral stage;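 negative = less Venus signal; first of two replicates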
* marks the source's active call; other numbers are inactive results; ? = inconclusive; nt = no result given. Some of the compounds tested. The share of hits here may be higher or lower than overall.

SMILES	Vaccinia inh	Vaccinia inh Venus
C/C=C/c1ccc2c(c1)O[C@H](CN(C)CC1CCOCC1)[C@H](C)CN([C@H](C)CO)S2(=O)=O	6.5	3.4
O=C(C1CC1)N1CC(=O)N2[C@H](CO)[C@@H](c3ccc(C#Cc4cccc(F)c4)cc3)[C@@H]2C1	?	nt
CC(=O)N(C)C[C@@H]1[C@@H](c2ccc(-c3cccc(C#N)c3)cc2)[C@H](CO)N1C(C)=O	5.9	16.2
C[C@H]1CCCCO[C@@H](CN(C)C(=O)NC2CCCCC2)[C@@H](C)CN([C@@H](C)CO)C(=O)c2cc(NS(=O)(=O)c3ccc(F)cc3)ccc2O1	?	nt
Cc1noc(C)c1NC(=O)Nc1ccc2c(c1)CC(=O)N([C@H](C)CO)C[C@H](C)[C@@H](CN(C)Cc1ccc(C(=O)O)cc1)O2	2.7	8.6
O=C(C[C@@H]1CC[C@H](NC(=O)CN2CCOCC2)[C@@H](CO)O1)NCCc1ccncc1	3.7	6.1
O=C(C1CCOCC1)N1CC(=O)N2[C@H](CO)[C@H](c3ccc(C#CCc4ccccc4)cc3)[C@H]2C1	-8.1	-6.6
CO[C@@H]1CN(C)C(=O)c2ccc(NS(=O)(=O)c3ccc(C)cc3)cc2OC[C@@H](C)N(Cc2ccccn2)C[C@H]1C	-6.6	0.7
C[C@H](CO)N1C[C@H](C)[C@@H](CN(C)C(=O)NC2CCCCC2)Oc2cc(-c3cccnc3)ccc2S1(=O)=O	24.8	3.3
CO[C@@H]1CN(C)C(=O)c2ccc(NC(=O)c3cnccn3)cc2OC[C@@H](C)N(CC2CC2)C[C@@H]1C	-0.9	-0.6
CCCC(=O)Nc1ccc2c(c1)C(=O)N(C)C[C@@H](OC)[C@H](C)CN(Cc1ccc(-c3ccccn3)cc1)[C@@H](C)CO2	-7.6	1.7
O=C(Cc1cccnc1)N1CCCCN2[C@H](CO)[C@H](c3ccc(C#CC4CCCC4)cc3)[C@H]2C1	?	nt
COc1ccc(S(=O)(=O)N(C)C[C@@H]2OCCCC[C@H](C)Oc3ccc(NC(=O)NC(C)C)cc3C(=O)N([C@@H](C)CO)C[C@@H]2C)cc1	-12.7	-2.8
C[C@H]1CN([C@@H](C)CO)C(=O)c2cc(NC(=O)C3CC3)ccc2O[C@H]1CN(C)Cc1ccccc1	0.1	0.9
CNC[C@@H]1Oc2ccc(NC(=O)CCC(F)(F)F)cc2C(=O)N([C@@H](C)CO)C[C@@H]1C	2.7	1.9
O=C(C[C@@H]1CC[C@@H](NC(=O)c2ccccc2)[C@@H](CO)O1)NCCc1ccncc1	7.4	5.5
CO[C@H]1CN(C)C(=O)c2ccc(NS(C)(=O)=O)cc2OC[C@@H](C)N(C(=O)CN(C)C)C[C@H]1C	2.0	5.2
Cc1cccc(S(=O)(=O)N2CC[C@@H]3[C@H]2c2cc(-c4cccc(C#N)c4)ccc2N(C)[C@H]3CO)c1	-27.2	-23.6
O=C(C[C@@H]1C=C[C@H](NC(=O)C2CCC2)[C@H](CO)O1)Nc1nccs1	13.2	5.5
Cc1ccc(S(=O)(=O)N(C)C[C@H]2Oc3ccc(NS(=O)(=O)c4ccc(Cl)cc4)cc3C(=O)N([C@@H](C)CO)C[C@@H]2C)cc1	4.7	-3.2
O=C(C[C@@H]1CC[C@@H]2NC[C@@H](O)COC[C@H]2O1)NCc1ccc2c(c1)OCO2	19.7	17.7
CO[C@H]1CN(C)C(=O)c2ccc(NS(C)(=O)=O)cc2OC[C@@H](C)N(C(=O)C2CCC2)C[C@H]1C	-5.6	-5.0
N#C[C@@H]1[C@@H](c2ccc(C#Cc3ccccc3F)cc2)[C@H](CO)N1C(=O)C1CCOCC1	-31.2	-21.7
COc1ccc(CN(C)C[C@H]2OCCCC[C@H](C)Oc3ccc(NS(=O)(=O)c4ccc(Cl)cc4)cc3C(=O)N([C@H](C)CO)C[C@@H]2C)cc1	?	nt
C[C@@H]1CN([C@H](C)CO)C(=O)c2cc(NS(=O)(=O)c3cn(C)cn3)ccc2O[C@@H](C)CCCCO[C@@H]1CN(C)C(=O)Cc1ccccc1	13.1	4.8
COCC#Cc1ccc2c(c1)O[C@@H](CN(C)CC1CCCC1)[C@H](C)CN([C@H](C)CO)S2(=O)=O	-20.7	-26.2
COc1cccc(S(=O)(=O)Nc2ccc3c(c2)[C@@H]2C[C@H](CC(=O)NCc4cccc(F)c4)O[C@H](CO)[C@@H]2O3)c1	-14.5	-11.9
CO[C@H]1CN(C)C(=O)c2ccc(NS(C)(=O)=O)cc2OC[C@H](C)N(C(=O)C2CCCC2)C[C@H]1C	2.0	-0.3
O=C(C[C@H]1C[C@@H]2c3cc(NS(=O)(=O)c4ccc(F)cc4)ccc3O[C@@H]2[C@@H](CO)O1)NCc1ccccc1F	13.4	6.9
CC(C)NC(=O)N(C)C[C@@H]1Oc2c(NC(=O)c3nc4ccccc4s3)cccc2C(=O)N([C@H](C)CO)C[C@@H]1C	10.0	6.6
C[C@@H]1CCCCO[C@@H](CN(C)C(=O)c2ccncc2)[C@H](C)CN([C@H](C)CO)C(=O)c2cc(NC(=O)c3ccncc3)ccc2O1	13.7	3.9
CCC(=O)N[C@@H]1CC[C@@H](CCn2cc(CN(C)C)nn2)O[C@@H]1CO	3.8	3.6
C[C@H]1CN([C@@H](C)CO)C(=O)Cc2cc(N(C)C)ccc2O[C@@H]1CN(C)CC1CC1	8.0	6.7
C[C@H](CO)N1C[C@H](C)[C@@H](CN(C)CC2CCCCC2)Oc2ccc(NC(=O)CCN3CCOCC3)cc2CC1=O	-12.2	1.3
CCCNC(=O)[C@H]1[C@H](CO)[C@H]2Cn3c(ccc(C4=CCCC4)c3=O)[C@@H]1N2Cc1ccncc1	2.9	5.8
C[C@@H]1CN([C@H](C)CO)C(=O)c2cc(C#Cc3ccccc3)cnc2O[C@@H]1CN(C)C(=O)c1ccccc1F	-5.0	-14.9
O=C(c1ccccn1)N1CC(=O)N2[C@H](CO)[C@@H](c3ccc(C#CCc4ccccc4)cc3)[C@@H]2C1	-1.6	-7.0
O=C(O)[C@@H]1[C@@H](CO)[C@@H]2Cn3c(ccc(-c4ccc(F)cc4)c3=O)[C@H]1N2CC1CCCCC1	7.1	4.0
O=C(C[C@H]1C=C[C@H](NC(=O)Cc2ccccn2)[C@@H](CO)O1)NCCc1ccncc1	7.2	8.2
Cc1cccc(S(=O)(=O)N(C)C[C@H]2OCc3ccccc3-c3ccccc3C(=O)N([C@H](C)CO)C[C@@H]2C)c1	-22.7	-18.5
COc1ccc(CNC(=O)C[C@@H]2C=C[C@@H](NC(=O)c3cccc(F)c3)[C@H](CO)O2)cc1	-7.9	-0.3
O=C(C1CCOCC1)N1CC[C@H]2[C@H](CO)Nc3ccc(Br)cc3[C@H]21	-12.0	-4.7
COc1cccc(C#Cc2ccc3c(c2)[C@@H]2[C@@H](CCN2S(=O)(=O)c2ccccc2)[C@@H](CO)N3)c1	-7.6	4.0
C[C@H](CO)N1C[C@H](C)[C@H](CN(C)C(=O)Cc2ccccc2)OCCCC[C@H](C)Oc2ccc(NS(C)(=O)=O)cc2C1=O	5.2	7.1
CC(C)NC(=O)N(C)C[C@H]1OCCCC[C@H](C)Oc2ccc(NC(=O)Cc3ccccc3)cc2C(=O)N([C@@H](C)CO)C[C@H]1C	25.7	-0.8
COCC#Cc1cnc2c(c1)C(=O)N([C@@H](C)CO)C[C@@H](C)[C@H](CN(C)C(=O)Nc1c(C)noc1C)O2	10.5	12.4
COc1ccccc1S(=O)(=O)N[C@@H]1CC[C@H](CCNC(=O)C2CCCCC2)O[C@H]1CO	-0.6	-1.7
C[C@@H]1CN([C@@H](C)CO)C(=O)c2cc(NC(=O)CCN3CCOCC3)ccc2O[C@@H]1CN(C)Cc1ccc(C(=O)O)cc1	-7.0	-2.0
O=C(c1ccccn1)N1CC2(C1)[C@@H](c1ccccc1)[C@H](CO)N2C(=O)CC1CC1	10.7	19.3
CN(C)CC#Cc1ccc([C@H]2[C@@H](CO)N3CCCCN(C(=O)C4CC4)C[C@@H]23)cc1	6.1	-1.0
CCCC#Cc1ccc([C@@H]2[C@H]3CN(C(=O)Nc4cccc(F)c4)CC(=O)N3[C@H]2CO)cc1	-20.3	-18.0
CNC[C@@H]1OCCCC[C@H](C)Oc2ccc(NS(=O)(=O)c3ccc(F)cc3)cc2C(=O)N([C@@H](C)CO)C[C@@H]1C	6.2	2.9
Cc1noc(C)c1NC(=O)Nc1cccc2c1O[C@H](CN(C)S(C)(=O)=O)[C@H](C)CN([C@@H](C)CO)C2=O	17.0	5.5
C[C@H](CO)N1C[C@H](C)[C@H](CN(C)C(=O)c2cnccn2)Oc2ncc(C#Cc3ccccn3)cc2C1=O	4.6	15.1
C[C@@H]1CCCCO[C@@H](CN(C)CC2CCCCC2)[C@H](C)CN([C@@H](C)CO)C(=O)c2cc(NS(=O)(=O)c3ccc(F)cc3)ccc2O1	?	nt
CNC(=O)C[C@H]1CC[C@H]2[C@H](COc3ccc(NC(=O)Nc4cc(C)cc(C)c4)cc3C(=O)N2C)O1	4.4	6.0
CCC(=O)Nc1ccc2c(c1)OC[C@@H](C)N(C(=O)Cc1cccnc1)C[C@@H](C)[C@@H](OC)CN(C)C2=O	-7.0	-4.6
COC(=O)C[C@H]1CC[C@H]2[C@@H](COc3ccc(NC(=O)c4ccccc4)cc3C(=O)N2C)O1	2.0	0.1
CCc1cnc(N2[C@@H](C#N)[C@H](c3ccc(C#CCC4CCCC4)cc3)[C@@H]2CO)s1	-25.3	-22.1
O=C(C[C@H]1CC[C@H](NC(=O)Nc2cc(F)ccc2F)[C@@H](CO)O1)NCc1ccncn1	23.7	20.6
Continued.
SMILES	Vaccinia inh	Vaccinia inh Venus
C[C@@H]1CN([C@@H](C)CO)C(=O)c2cccc(NS(=O)(=O)c3ccccc3)c2O[C@@H]1CN(C)Cc1ccc(C(F)(F)F)cc1	-30.2	-27.7
COCC(=O)Nc1ccc2c(c1)[C@H]1C[C@@H](CC(=O)NCc3ccc4c(c3)OCO4)O[C@H](CO)[C@H]1O2	-1.1	6.6
COc1ccc(S(=O)(=O)N[C@@H]2CC[C@@H](CCn3cc(C(C)C)nn3)O[C@H]2CO)cc1	8.5	5.0
C[C@H]1CN([C@@H](C)CO)C(=O)CCCn2nncc2CO[C@H]1CN(C)S(=O)(=O)c1ccc(-c2ccccc2)cc1	-18.4	-21.2
COc1ccc(NC(=O)N(C)C[C@@H]2OCCCC[C@H](C)Oc3ccc(NC(=O)CCC(F)(F)F)cc3C(=O)N([C@H](C)CO)C[C@@H]2C)cc1	8.8	4.4
C[C@H](CO)N1C[C@H](C)[C@@H](CN(C)Cc2ccc(C(F)(F)F)cc2)Oc2ccc(NC(=O)Nc3cccc4ccccc34)cc2C1=O	-27.7	-4.1
Cc1ccc(S(=O)(=O)Nc2ccc3c(c2)C(=O)N([C@@H](C)CO)C[C@@H](C)[C@H](CN(C)C(=O)Nc2c(C)noc2C)OCCCC[C@@H](C)O3)cc1	22.7	13.9
CO[C@@H]1CC[C@@H]2CCN(C)C(=O)[C@H](C)N(C)C(=O)c3cc(C#N)ccc3OC[C@@H]1O2	2.0	0.7
COc1ccc(NC(=O)Nc2ccc3c(c2)C(=O)N([C@@H](C)CO)C[C@H](C)[C@@H](CN(C)Cc2ccccc2)OCCCC[C@@H](C)O3)cc1	?	nt
C[C@@H]1CN([C@H](C)CO)C(=O)c2cc(NC(=O)C3CCCCC3)ccc2O[C@@H]1CN(C)Cc1ccc(C(=O)O)cc1	11.1	2.8
COCC(=O)N1[C@@H](CO)[C@@H]2c3ccccc3N(C(=O)NC(C)C)C[C@@H]21	10.3	2.5
COC(=O)C[C@H]1C[C@@H]2c3cc(NC(=O)c4ccc5c(c4)OCO5)ccc3O[C@@H]2[C@H](CO)O1	7.3	0.3
CN1C[C@@H]2[C@H](c3ccccc31)[C@@H](CO)N2S(=O)(=O)c1ccccc1	-7.3	-12.3
CO[C@H]1CN(C)C(=O)c2cc(NC(C)=O)ccc2OC[C@@H](C)N(C(=O)c2cccnc2)C[C@@H]1C	8.2	1.3
O=C(Nc1ccc(Cl)cc1)N[C@H]1CC[C@@H](CCn2cc(-c3ccccc3F)nn2)O[C@@H]1CO	-22.9	-13.3
COc1cccc(C(=O)Nc2ccc3c(c2)C(=O)N(C)C[C@@H](OC)[C@H](C)CN(CC2CC2)[C@@H](C)CO3)c1	-6.5	-1.1
C[C@H]1CN([C@@H](C)CO)C(=O)CCCn2nncc2CO[C@H]1CN(C)C(=O)Nc1ccc(F)cc1	0.3	-7.3
C[C@H]1CN([C@@H](C)CO)C(=O)c2cccc(NC(=O)Nc3ccccc3)c2O[C@H]1CN(C)Cc1ccccc1	-18.4	-6.6
CO[C@@H]1CN(C)C(=O)c2ccc(NC(C)=O)cc2OC[C@H](C)N(Cc2cc(F)ccc2F)C[C@@H]1C	-13.8	-24.4
C[C@H]1CN([C@@H](C)CO)C(=O)c2cc(NC(=O)Cc3cn(C)c4ccccc34)ccc2O[C@H]1CN(C)C(=O)NC1CCCCC1	14.9	9.5

Reformatted in CSV form: 6 of the compounds above
smiles,Vaccinia inh,Vaccinia inh Venus
CC(=O)N(C)C[C@@H]1[C@@H](c2ccc(-c3cccc(C#N)c3)cc2)[C@H](CO)N1C(C)=O,5.9,16.2
C[C@H]1CCCCO[C@@H](CN(C)C(=O)NC2CCCCC2)[C@@H](C)CN([C@@H](C)CO)C(=O)c2cc(NS(=O)(=O)c3ccc(F)cc3)ccc2O1,?,nt
Cc1noc(C)c1NC(=O)Nc1ccc2c(c1)CC(=O)N([C@H](C)CO)C[C@H](C)[C@@H](CN(C)Cc1ccc(C(=O)O)cc1)O2,2.7,8.6
O=C(C[C@@H]1CC[C@H](NC(=O)CN2CCOCC2)[C@@H](CO)O1)NCCc1ccncc1,3.7,6.1
O=C(C1CCOCC1)N1CC(=O)N2[C@H](CO)[C@H](c3ccc(C#CCc4ccccc4)cc3)[C@H]2C1,-8.1,-6.6
CO[C@@H]1CN(C)C(=O)c2ccc(NS(=O)(=O)c3ccc(C)cc3)cc2OC[C@@H](C)N(Cc2ccccn2)C[C@H]1C,-6.6,0.7
